Screening results from PubChem.
B2AR ag – activates human beta-2 adrenergic receptor causing internalization | P07550 | Am2.2-beta2AR cells, FAP receptor internalization, flow cytometry; reference of the scale not given here | response, % (no concentration beside the values) | hit rate 0.43% among 340,000 | AID 504454;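 active = response above a set limit, near 3 SD of response in nonfluorescent compounds, cut at about 42% in these data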;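 note: stock transfer was 100 nL into about 11 µL; a reference agonist was the positive control; negative values mostly stem from fluorescent compounds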
Target sequence (P07550 whole entry, looked up): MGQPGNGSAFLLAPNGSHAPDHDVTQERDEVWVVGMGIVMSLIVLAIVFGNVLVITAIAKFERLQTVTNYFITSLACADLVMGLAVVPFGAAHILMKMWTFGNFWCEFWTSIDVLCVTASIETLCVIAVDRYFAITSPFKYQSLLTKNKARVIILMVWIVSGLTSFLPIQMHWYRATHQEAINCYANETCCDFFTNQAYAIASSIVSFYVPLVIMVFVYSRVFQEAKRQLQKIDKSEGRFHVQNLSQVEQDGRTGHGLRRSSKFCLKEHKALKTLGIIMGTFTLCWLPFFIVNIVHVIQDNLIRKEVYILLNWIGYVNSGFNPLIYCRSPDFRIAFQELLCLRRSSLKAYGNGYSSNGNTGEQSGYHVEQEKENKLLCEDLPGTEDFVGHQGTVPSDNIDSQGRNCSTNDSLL
RanGTP-Impb inh – inhibitors of RanGTP-importin-beta interaction, primary screen, biochemical, FRET, CFP-Ran, YFP-importin-beta, homogeneous; cell-free CFP-Ran/YFP-importin-beta FRET ratio; inhibition, % (concentration not given with the values); hit rate 1.1% among 300,000;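 active = most replicates above 15%; inconclusive = exactly half above 15%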;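 note: 0% = DMSO wells and 100% = Ran loaded with GDP instead of GTP; wells of about 40 µL received 100 nL stock; the first replicate is given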
Vif TR-FRET – HIV-1 Vif–A3G interaction blockers – biochemical, TR-FRET, GST-Vif 1-94, biotin-A3G peptide, dose response retest, primary screen (AID 1117319). inhibition, %, or IC50 in µM where a hit was titrated. TR-FRET GST-Vif / biotin-A3G peptide binding; higher % means a stronger effect; test concentration not given here; strong numbers were not always called active. hit rate 0.57% among 260,000;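 active = above the screen mean plus three standard deviations and confirmed in dose response; inconclusive = results disagree or hit not tested in dose response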;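 note: Vif residues 1-94 fused to GST binding biotinylated APOBEC3G peptide 110-148; 0% = full assay without inhibitor and 100% = GST in place of GST-Vif; retest series ran down from 100 µM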
ALR inh – blocks human ALR sulfhydryl oxidase activity; purified ALR, DTT oxidation, H2O2 HRP-luminol luminescence; P55789; inhibition, % (no concentration beside the values); hit rate 3.8% among 290,000;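 active = mean and each replicate at 75% or more; inconclusive = only one of the two met; inactive = neither met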;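 note: stock transfer was 7.5 nL into about 7.5 µL; 0% = neutral wells and 100% = wells with inactivated enzyme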
Target sequence (P55789 whole entry, looked up): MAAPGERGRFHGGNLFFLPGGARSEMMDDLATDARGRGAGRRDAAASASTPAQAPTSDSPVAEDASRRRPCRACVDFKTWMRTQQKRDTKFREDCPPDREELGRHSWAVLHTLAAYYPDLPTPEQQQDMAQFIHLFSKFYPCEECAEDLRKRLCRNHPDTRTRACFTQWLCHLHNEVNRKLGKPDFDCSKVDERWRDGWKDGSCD
HNF4A DNA FP – change in binding of human HNF4 alpha to DNA. P41235. HNF4a-FITC DNA binding, fluorescence polarization, 1 h. activity change, % at 10 µM. hit rate 0.3% among 360,000. AID 1224865; in the data active = activity change above about 30%, passing the limit was not always enough;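 note: controls were the assay level and a saturating level of protein; the project sought stronger binding though the title names inhibitors; some compounds called inactive have numbers as strong as hits; positive values seem to mean higher polarization but the record does not say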
Target sequence (P41235 whole entry, looked up): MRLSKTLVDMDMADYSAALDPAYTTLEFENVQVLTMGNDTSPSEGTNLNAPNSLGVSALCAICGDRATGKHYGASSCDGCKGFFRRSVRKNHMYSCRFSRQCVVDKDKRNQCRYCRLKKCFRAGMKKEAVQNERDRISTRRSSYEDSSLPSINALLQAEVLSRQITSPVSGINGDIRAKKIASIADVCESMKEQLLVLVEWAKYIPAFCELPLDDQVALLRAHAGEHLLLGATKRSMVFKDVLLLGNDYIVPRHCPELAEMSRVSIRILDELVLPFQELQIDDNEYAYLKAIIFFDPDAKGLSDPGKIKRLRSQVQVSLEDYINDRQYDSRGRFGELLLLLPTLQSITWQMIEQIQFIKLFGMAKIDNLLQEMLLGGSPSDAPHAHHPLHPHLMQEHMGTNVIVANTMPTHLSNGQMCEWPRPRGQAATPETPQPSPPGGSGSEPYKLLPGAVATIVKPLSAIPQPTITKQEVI
Calb FLC – C. albicans growth modulation with fluconazole; C. albicans CaCi-2 (fluconazole-resistant clinical isolate) + fluconazole, Alamar Blue growth, 48 h; growth inhibition, % (concentration not given with the values); hit rate 0.57% among 300,000; AID 1979;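 active = most replicates above 75%; inconclusive = exactly half above 75%; inactive = most below 75%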;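 note: all wells also contain fluconazole at 8 µg/ml as a sub-toxic cotreatment; 0% = median of DMSO wells and 100% = median of geldanamycin control wells; wells of about 8 µL received 7.5 nL stock; the first replicate is given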
LANA-H2A inh – blocks KSHV LANA binding to histone H2A/H2B. Q9QR71. AID 2629. inhibition, % (concentration not given with the values). hit rate 0.6% among 320,000. cell-free LANA-H2A/H2B peptide, fluorescence polarization; in the data active = inhibition mostly above about 10%, no sharp cut-off; inactive = mostly below about 6.7%;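 note: stock transfer was 7.5 nL into about 10 µL; 0% = median of vehicle wells and 100% = median of positive control wells; one replicate is shown; the record names a cut of 25% in any replicate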
The depositor's hits bear a star; ? = inconclusive; / = no result given; & = joins results of further samples. The order is random (roughly 6.3% active in at least one column).

SMILES	B2AR ag	RanGTP-Impb inh	Vif TR-FRET	ALR inh	HNF4A DNA FP	Calb FLC	LANA-H2A inh
Cc1nc(-c2ccc(S(=O)(=O)Nc3ccccc3C)cc2)co1	-3	-2.8	/	1	5.9	-18	5.3
Oc1ccc2nnc3c(Br)cnn3c2c1	-1	53*	/	-9	-90	13	19*
C=CCN1C(=O)C2C(C(=O)NC3CCCC3)C3(C)C=CC2(O3)C1C(=O)NC1CCCC1 (configuration not stated)	-1	-0.7	/	0	0.8	4	0.9
CCCCN(C(=O)c1ccc2c(c1)OCO2)c1ccccc1	-4	-2.1	/	20	1.2	0	-2.1
c1ccc(C2=NC(c3ccccc3)N=C(c3ccccc3)N2)cc1	-8	0.4	-5%	2	2.4	-31	-1.8
CCOc1cc(S(=O)(=O)N2CCCC2)ccc1Cl	-11	-2.4	1%	4	-3.4	-4	-5.8
Cn1c(=O)c([N+](=O)[O-])c(N2CCSCC2)c2ccccc21	-9	-1.6	-3%	-1	-1.0	3	-1.2
CCC(C(=O)NC1CCCC1)N(C(=O)Cn1nnc(-c2ccc(OC)c(OC)c2)n1)C1CCCCC1 (configuration not stated)	3	4.3	10%&2%	-2	-1.6	43	-1.3
O=C(CN1CC[n+]2c(-c3cccs3)csc21)c1ccc(-c2ccccc2)cc1	-2	0.7	-1%	51	2.0	3	-1.4
Cc1ccc(C(=O)c2ccccc2C(=O)OCC(=O)Nc2ccc(SC(F)F)cc2)cc1	2	4.5	-12%	7	0.5	-2	2.7
CCOc1ccc(NC(=O)C2CCN(C(=O)NC3CCCCC3)CC2)cc1	4	2.4	19%	-2	-0.3	-3	2.6
COc1nc(-c2ccccc2)ccc1-c1noc(-c2ccccc2F)n1	-3	-0.8	9%	-10	-4.0	?	-1.1
O=C(/C=C/c1ccc(Br)o1)OCc1ccccc1	-3	-4.1	7%	-11	-2.9	-1	5.3
COc1ccc(C2/C=C\CN(S(=O)(=O)c3ccc4ccccc4c3)CC(=O)N2Cc2ccc(F)cc2)cc1 (configuration not stated)	-2	-2.0	-7%	/	1.1	-1	-4.6
Cc1ccc(C)c(-n2sc3ccc(F)cc3c2=O)c1	4	/	/	20	-2.4	/	-3.7
COc1ccc(/C=N\NC(=O)c2ccccc2[N+](=O)[O-])cc1COc1c(F)c(F)c(F)c(F)c1F	53*	-1.3	0%	-21	-1.7	-1	-1.3
CCOC(=O)C(C)Sc1nc2c(cnn2-c2ccc(C)cc2)c(=O)[nH]1 (configuration not stated)	2	?	-1%	2	-5.2	/	2.2
CC(OC(=O)CNC(=O)c1ccccc1F)C(=O)Nc1nc(-c2ccccc2)cs1 (configuration not stated)	13	1.1	-6%	36	-1.1	7	-3.3
COc1ccc2c(c1)CC/C(=C\C=C\c1ccccc1)C2=O	5	-3.7	13%	/	295	-9	-2.6
Nc1nonc1C(=O)NCCNc1ncccc1[N+](=O)[O-]	5	-1.6	-4%	-15	0.0	-6	-2.3
CC(=O)c1sc(N/N=C/c2cccc(O)c2)nc1C	8	6.3	-2%	7	7.9	2	-5.3
Oc1ccc(CN2CCCc3ccccc32)c2cccnc12	1	0.6	?	5	-1.1	3	-0.1
CN(C)S(=O)(=O)c1ccc(C(=O)NCc2nnc(SCC(=O)Nc3ccc(F)cc3)n2-c2ccc(F)cc2)cc1	-2	6.7	10%	0	0.0	11	-0.7
CC(=O)Nc1ccc(Cl)c(-c2nc3ncccc3o2)c1	-10	-0.7	-6%	0	1.9	-8	1.3
Cc1ccccc1NC(=O)c1ocnc1C	4	-5.7	24%	-12	4.4	-4	-2.3
COc1ccc(NC(=O)c2ccccc2CC[N+](=O)[O-])cc1	0	3.2	/	-19	-0.1	-6	3.1
Cc1cc(C)n(-c2ccc(NC(=O)C3CCN(Cc4cnc(C)s4)CC3)cc2)n1	-4	4.4	/	-16	5.0	0	5.2
CCOC(=O)c1c(C)[nH]c(C)c1C(=O)COC(=O)c1c(OC)cccc1OC	4	2.6	7%	-10	4.0	-1	1.8
CCOc1ccc(CN2CCN(Cc3ccsc3)C(CCO)C2)cc1CO (configuration not stated)	-1	-0.3	14%	-1	3.2	?	3.9
CCc1c(C)nc2ncnn2c1N1CCCC(C(=O)NCc2ccco2)C1 (configuration not stated)	9	4.5	-4%	/	1.4	-20	9.0
O=C(NCc1ccccc1)N1CCOCC1	5	2.0	-6%	-1	-2.1	3	0.2
CCCOc1ccc(Cc2c(COCC)[nH]c(=S)[nH]c2=O)cc1	-5	/	-2%	/	3.3	/	/
COC(=O)CN(c1cc(C(F)(F)F)ccc1Cl)S(C)(=O)=O	1	8.1	?	-1	2.5	?	1.8
CC1(C)NC(=O)N(CC(=O)N2CCN(c3ccc([N+](=O)[O-])cc3)CC2)C1=O	2	/	/	39	2.4	/	4.3
Cc1cccc(C(=O)NCc2nnc(SCC(=O)NC(C)c3ccccc3)n2C)c1 (configuration not stated)	2	-2.1	1%	0	1.6	4	0.5
N#Cc1ccc(-c2cccnc2)nc1SCc1ccc(Cl)cc1Cl	52*	2.0	?	-21	-16	-1	2.0
C/C(=C\C(=O)O)C(=O)Nc1nccs1	0	4.3	-2%	/	-1.5	-4	-10
Cc1ccc2oc(C(=O)N3CCC(N4CCSCC4)CC3)c(C)c2c1	-3	-3.3	/	-6	-0.3	1	-2.0
COc1ccc2sc(N(CCCN(C)C)C(=O)c3ccc(S(=O)(=O)N(C)C4CCCCC4)cc3)nc2c1	16	0.7	0%	-6	-0.9	7	-4.2
O=C(N[C@H]1C/C=C\C[C@@H](CC(=O)N(CCO)Cc2ccccc2)C(=O)N2CCC[C@H]2COC1=O)OCC1c2ccccc2-c2ccccc21	-4	/	3%	-5	0.8	/	/
O=C(Cn1cnc2c(nnn2-c2ccc(F)cc2)c1=O)N1CCCC1	3	-1.2	25%	6	-1.0	19	0.9
O=C(NC1CCCCC1)C(c1ccccc1F)N(Cc1ccco1)C(=O)c1ccccn1 (configuration not stated)	-3	-1.5	/	1	10	-3	-0.6
COc1ccccc1NC(=O)CSc1nnc(CCC(=O)Nc2ccccc2F)n1C	-3	3.6	-2%	-2	1.8	-2	-1.3
COc1ccccc1CNC(=O)c1ccc(SC)cc1OC	-9	5.5	-7%	-12	-3.3	9	-3.0
CN(C)S(=O)(=O)c1cccc(NC(=O)c2ccncc2)c1	-7	0.2	-12%	-4	2.1	-3	0.1
CC(C)c1nc(CNC(=O)C2CCC(=O)N(CCc3ccc(Cl)cc3)C2)no1 (configuration not stated)	-5	-3.9	/	-2	1.3	1	-0.7
Cc1ccc(S(=O)(=O)n2cc(-c3ccccc3)c(N)n2)cc1	-4	/	3%	0	0.2	3	-0.8
CCC(=O)Nc1ccc(NC(=O)CN2CCCC(C)C2)c(Cl)c1 (configuration not stated)	-3	-1.0	-2%	4	-0.1	-18	1.2
N#C/C(=C\c1cccs1)c1nc2ccccc2[nH]1	-12	1.4	?	/	3.5	-6	1.3
COC(=O)CCC(=O)NNC(=O)c1cccc(Cl)c1	-2	/	5%	1	1.3	-13	5.7
CN1CCN(c2ccccc2NC(=O)c2cccc(OCc3ccccc3)c2)CC1	0	-2.3	-1%	-5	1.3	6	-5.3
CC(C)C(NC(=O)c1ccc(C(C)(C)C)cc1)C(=O)NCCc1ccccn1 (configuration not stated)	-1	4.9	-3%	/	-3.1	0	/
O=C(C1Cc2ccccc2CN1S(=O)(=O)c1ccc(F)cc1)N1CCCCC1 (configuration not stated)	10	3.1	0%	0	-1.4	0	0.8
CN1C(=O)CCC(CCC(=O)O)(c2ccccc2O)C1=O (configuration not stated)	6	-0.1	2%	0	-0.6	6	-6.8
CCOc1ccc(NC(=O)CC(c2ccccc2)c2ccc(F)cc2)cc1 (configuration not stated)	5	1.0	/	-2	-3.7	1	-1.5
CC(C)CC(=O)Nc1nc2ccc(S(C)(=O)=O)cc2s1	-5	-2.1	12%	-20	1.8	-1	1.1
Cc1cc2nc(Sc3c([N+](=O)[O-])nc(C)n3Cc3ccccc3)[nH]c2cc1C	11	5.0	/	97*	-1.0	-13	-4.4
CCCN1CCN(CCCNC(=O)CCCn2nc(C)c3sc4ccccc4c3c2=O)CC1	-4	-1.9	/	/	2.8	8	1.7
Cc1ccc(NC(=O)C(C)SCc2ccccc2)cc1 (configuration not stated)	5	0.3	-5%	64	-0.3	-36	-7.4
O=C(CCNS(=O)(=O)c1ccccc1)N1CCCCCC1	-6	?	/	-3	1.2	-10	2.4

2 entries picked at random from the list so far, as already listed:
SMILES	B2AR ag	RanGTP-Impb inh	Vif TR-FRET	ALR inh	HNF4A DNA FP	Calb FLC	LANA-H2A inh
CC(OC(=O)CNC(=O)c1ccccc1F)C(=O)Nc1nc(-c2ccccc2)cs1 (configuration not stated)	13	1.1	-6%	36	-1.1	7	-3.3
CC1(C)NC(=O)N(CC(=O)N2CCN(c3ccc([N+](=O)[O-])cc3)CC2)C1=O	2	/	/	39	2.4	/	4.3

Continued.
SMILES	B2AR ag	RanGTP-Impb inh	Vif TR-FRET	ALR inh	HNF4A DNA FP	Calb FLC	LANA-H2A inh
CC(=N)C1=C(O)CC(C)(C)CC1=O	3	5.8	10%	/	-2.9	-10	0.2
Cc1ccccc1NC(=O)COC(=O)c1ccccc1SCC(=O)N1CCCC1	-4	-3.2	-3%	1	2.6	-12	-3.7
Cc1cc(C)n2nc(C(F)(F)F)c(-c3ccccc3)c2n1	2	0.3	/	-6	5.5	-14	-8.9
CCCC(=O)Nc1cccn(Cc2ccccc2Br)c1=O	2	4.3	3%	-9	1.1	10	1.2
CC1CCN(CC(=O)NCCc2ccc(F)cc2)CC1	0	0.3	/	-25	-0.9	-1	1.6
CCc1nc(Nc2ccc(O)cc2)c2oc3ccccc3c2n1	12	0.6	3%	93*	-0.2	18	0.1
Cc1cc(NC(=O)CSc2nnc(-c3ccccc3)o2)no1	-1	0.2	3%	-1	1.8	2	-0.6
COc1ccc(Nc2nc(N3CCOCC3)nc(N3CCOCC3)n2)cc1	-3	5.1	/	6	1.5	3	0.6
Cc1ccc(OCCN(C)C)c([N+](=O)[O-])c1	-3	0.4	-7%	-23	-0.4	-12	0.9
CCN(CC)c1nc2nonc2nc1N(CC)CC	-7	-3.9	23%	-22	-3.9	16	-49
Clc1ccc(Cl)c2sc(N3CCOCC3)nc12	4	?	/	-5	1.8	3	0.0
CCNC(=O)c1ccc(C23CC4CC(CC(C4)C2)C3)o1	-10	0.0	-9%	/	0.6	-7	6.1
CCN(CC)C(=O)CN(c1cccc(Br)c1)S(C)(=O)=O	0	5.6	-5%	-4	-1.6	-3	0.0
CN(C)S(=O)(=O)c1cccc(NC(=O)COC(=O)c2ccc3ccccc3n2)c1	10	/	/	-7	-0.8	/	-4.3
O=C(NCc1ccc(F)cc1)c1ccc(CS(=O)(=O)c2ccc(Br)cc2)o1	3	-0.3	26%	/	-2.7	3	0.4
COc1ccc(C)cc1NC(=O)COC(=O)c1c(C)noc1C	-6	5.0	-2%	-18	-2.5	10	-2.7
CC(NC(=O)Nc1cccnc1)(C(F)(F)F)C(F)(F)F	-7	0.0	-7%	/	-0.7	0	-2.6
Cn1c(NC(=O)c2ccccc2F)c(-c2cccs2)c(=O)c2ccccc21	5	1.0	2%	-3	1.5	-7	10
CSc1ncccc1C(=O)OCC(=O)c1ccc(S(=O)(=O)N2CCCCC2)cc1	-3	-1.7	/	-1	-0.6	1	0.2
Cc1cc(C)c(C(=O)NNC(=O)c2cccnc2)c(C)c1	3	-2.1	/	-3	-1.3	-7	11
CC1(C)C(C=C(Cl)Cl)C1C(=O)N1CCN(c2ccccc2)CC1 (configuration not stated)	2	-2.7	-4%	10	-6.1	?	1.7
COc1ccc(Cc2nnc(SCC(=O)NC3CCCC3)o2)cc1	1	6.5	-8%	2	0.5	8	-5.7
